RE007 growth inh = qHTS Assay for Inhibitors of the HIV-1 protein Vpr; S. pombe RE007 Vpr strain, BacTiter-Glo ATP luminescence, 24 h; control for the full effect not named in the record; Potency, µM (top dose mostly 92.2 µM), for inactives: at the highest dose activity change, negative = less growth; 360,000 tested, 0.21% active; active = well fitted falling curve with a large enough effect; inconclusive = small, poorly fitted or top-dose-only effect; inactive = no such curve, though single readings can be large or run the other way;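 also: % is scaled to controls: 0 for no effect and ±100 for the full control effect; nearly all actives have a fitted effect of over 50% in size; the assay follows cell death caused by Vpr and the record does not say whether a fall means rescue or toxicity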
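Fission yeast RE007 carrying one integrated HIV-1 vpr copy, seeded at OD 0.01 in PMG+AL medium with 23 nL pinned compound. Grown 24 h at 30 degrees; viability read by BacTiter-Glo luminescence after 5 min.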
2A StopGo = High Throughput Screening for Foot and Mouth Disease Virus Antivirals | 410,000 tested, 1.2% active | AID 1159524, 2015 | human cells with a luciferase reporter of 2A StopGo recoding; control for the full effect not named in the record | Potency, µM (doses to about 57.9 µM), without a hit: at the top dose signal change, negative = less light; active = well fitted falling curve with a large enough effect; inconclusive = small, poorly fitted or top-dose-only effect; inactive = no such curve, though single readings can be large or run the other way; tested in HEK293T cells; also: % is scaled to controls: 0 for no effect and ±100 for the full control effect; nearly all actives have a fitted effect of over 45% in size; luciferase light after 4 h
SARS PLP yeast = qHTS of Yeast-based Assay for SARS-CoV PLP | S. cerevisiae expressing SARS-CoV PLpro, growth rescue; control for the full effect not named in the record | Potency, µM (highest dose often 32.9 µM), for inactives: top-dose activity, positive = growth rescue | 330,000 tested, 0.19% active | AID 485353, 2010; active means well fitted rising curve with a large enough effect; inconclusive means small, poorly fitted or top-dose-only effect; inactive means no such curve, though single readings can be large or run the other way; also: 0% is about no effect; nearly all actives have a fitted effect of over 55% in size; growth read by luminescence after 48 h
* marks the source's active call; other numbers are inactive results; u = inconclusive; [ ] = remark or other dose. Potency is read from the fitted curve at half-maximal effect.

The line under a structure holds: RE007 growth inh	SARS PLP yeast	2A StopGo
COc1ccc(/C=C(\C#N)C(=O)ONC2=NCCCCC2)cc1
 : -2%	-3%	3%
CNC(=S)NNC(=O)CNc1ccc(C)c(Cl)c1
 : 11%	2%	10%
CCCN(C(=O)/C=C/c1ccco1)c1c(N)n(Cc2ccccc2)c(=O)[nH]c1=O
 : 0%	-1%	-21%
CCc1sc(C(=O)N2CCN(CC(=O)Nc3cccc(F)c3)CC2)cc1C
 : -1%	-2%	10%
CCOc1ccccc1OCCCC(=O)Nc1cccc(-n2cnnn2)c1C
 : -6%	4%	-14%
Cc1ccc(-c2nc(COC(=O)C3=NN(c4ccccc4)C(=O)CC3)cs2)cc1
 : -3%	-3%	27%
Cc1ccc(S(=O)(=O)N2CCN(S(=O)(=O)c3c(C)n[nH]c3C)CC2)cc1C
 : 8%	-4%	-2%
COc1cc(O)cc2c1cc([N+](=O)[O-])c1c(C(=O)O)cc3c(c12)OCO3
 : 2%	1%	-13%
CCN(C(=O)CSc1nnc(C)c(=O)[nH]1)c1cccc2ccccc12
 : -15%	-3%	2%
CCOc1ccccc1NC(=O)C(NCC1CCCCC1)c1ccccc1 (stereo not drawn)
 : 6%	-13%	-19%
COc1ccc(NC(=O)CSCC(=O)N2CCN(C(=O)c3ccco3)CC2)cc1
 : -4%	0%	-10%
NC(=O)Nc1ccc(C(=O)OCC(=O)N2CCc3ccccc3C2)cc1
 : 5%	1%	16%
O=C(Nc1ccccn1)c1ccc2c(=O)n3c(nc2c1)CCCCC3
 : 5%	-1%	-19%
CC1CN(S(=O)(=O)c2ccc(C(=O)OCc3ccc(C#N)cc3)cc2)CC(C)O1 (stereo not drawn)
 : -6%	-1%	-6%
CC(Sc1nnc(C2CC2)n1C1CC1)C(=O)N(C)Cc1cccc(F)c1 (stereo not drawn)
 : -10%	10%	-7%
S=C(Nc1ccc2c(c1)OCCO2)Nc1ccc2c(c1)OCO2
 : -4%	0%	-1%
O=C(N/N=C/c1ccc(OCc2ccc(F)cc2)cc1)c1ccccc1
 : 4%	-8%	42%[activator]
C[C@@H]1CN([C@H](C)CO)C(=O)Cc2cc(NS(=O)(=O)c3cn(C)cn3)ccc2O[C@H]1CN(C)S(=O)(=O)c1ccc(Cl)cc1
 : 0%	2%	-14%
NCCCCC(N)c1cn([C@@H](CCC(=O)O)C(=O)N2CCNCC2)nn1 (stereo partly drawn)
 : 2%	-1%	-18%
CS(=O)(=O)Nc1ccccc1C(=O)OCC(=O)N1CCC(c2ccccc2)=N1
 : -16%	9%	-17%

Compounds above containing an NH in an aromatic ring, in the order listed:
The line under a structure holds: RE007 growth inh	SARS PLP yeast	2A StopGo
CCCN(C(=O)/C=C/c1ccco1)c1c(N)n(Cc2ccccc2)c(=O)[nH]c1=O
 : 0%	-1%	-21%
Cc1ccc(S(=O)(=O)N2CCN(S(=O)(=O)c3c(C)n[nH]c3C)CC2)cc1C
 : 8%	-4%	-2%
CCN(C(=O)CSc1nnc(C)c(=O)[nH]1)c1cccc2ccccc12
 : -15%	-3%	2%

Next section.
The line under a structure holds: RE007 growth inh	SARS PLP yeast	2A StopGo
COC(=O)C1=C(c2ccc(F)cc2OCc2ccccc2)C[C@@H]2CC[C@H]1N2C(=O)NCC1CC1
 : 9%	1%	-19%
O=C(Nc1cccc(Cl)c1)c1nc[nH]c1C(=O)N1CCN(c2ccccc2)CC1
 : 3%	-6%	-1%
C[C@H]1CN([C@@H](C)CO)C(=O)Cc2cc(NS(=O)(=O)c3cccs3)ccc2O[C@H]1CN(C)S(=O)(=O)c1cn(C)cn1
 : 13%	5%	8%
CCOc1ccc(NS(=O)(=O)c2ccc(C(=O)NCC(c3ccco3)N3CCCC3)cc2)cc1 (stereo not drawn)
 : -1%	-3%	5%
Nc1c(Cl)cc(C2=NCCn3nc4cc(C(F)(F)F)ccc4c32)cc1Cl
 : -2%	1%	-7%
CC1CCCN(C(=O)CN(c2ccccc2)S(=O)(=O)c2ccc(F)cc2)C1 (stereo not drawn)
 : 0%	0%	32%[activator]
CC1(C)CC2CC(C)(CN2Cc2c(O)ccc3ccccc23)C1 (stereo not drawn)
 : -16%	-1%	-19%
CC(C)(C)OC(=O)C[C@@H]1C/C=C\C[C@H](CC(=O)N(CCO)Cc2ccccc2)C(=O)NCCOC1=O
 : 13%	1%	-19%
COCCN(C(=O)CSc1ncc(C(F)(F)F)cc1Cl)c1c(N)n(Cc2ccccc2)c(=O)[nH]c1=O
 : 2%	0%	-10%
O=C(COC(=O)c1ccccc1OCc1ccccc1Cl)NCC1CCCO1 (stereo not drawn)
 : 1%	-3%	u
CCc1ccc(N2CC(C(=O)NCC(C)(C)N3CCOCC3)CC2=O)cc1 (stereo not drawn)
 : -9%	-4%	-19%
Cc1cc(C)n2nc(C(=O)OCC(=O)NNC(=O)c3ccccc3)nc2n1
 : -9%	-2%	-12%
COC(=O)[C@]1(CC(C)C)N[C@H](c2ccc(-c3ccccc3)cc2)[C@@H]2C(=O)N(C)C(=O)[C@@H]21
 : -3%	-12%	u
CC(C)(Oc1ccc(F)cc1)C(=O)OCC(=O)c1ccc(S(C)(=O)=O)cc1
 : 4%	-5%	-20%
COc1ccc(Cl)cc1NC(=O)CN(C)C(=O)Cc1ccc(-c2ccccc2)cc1
 : -1%	-7%	-12%
Cn1c(N)c(-c2nc3cccnc3n2C)sc1=S
 : 3%	-1%	31%[activator]
CCOC(=O)c1c2ccc(OCC(=O)NN)cc2n2ccccc12
 : -10%	3%	5%
Cc1ccc(NC(=O)c2cccnc2C(=O)Nc2ccc(C)cc2)cc1
 : -1%	1%	-1%
O=C(CCNS(=O)(=O)c1ccc(Br)cc1)NCCCSc1ccccc1
 : -8%	7%	-2%
CC1CCCC(NC(=O)COC(=O)c2n[nH]c3ccccc23)C1C (stereo not drawn)
 : -4%	-4%	-25%
CCCN(CCC)CCNC(=O)CCC(=O)Nc1ccc2nc(N3CCN(C)CC3)cc(C)c2c1
 : -12%	1%	-11%
CC(C)[C@H](NC(=O)c1ccccc1F)C(=O)OCC(=O)Nc1sccc1C(N)=O
 : 2%	-3%	0%
COc1ccc(OC)c(CC(=O)Nc2cc(S(=O)(=O)N3CCCCC3)ccc2C)c1
 : 11%	0%	-5%
CCOC(=O)C1=CN(Cc2ccco2)S(=O)(=O)N(C)C1CC (stereo not drawn)
 : 6%	7%	-22%
CCSc1nc2cc(S(=O)(=O)N3CCOCC3)ccc2o1
 : -4%	-4%	-17%
CC1CCC2(CC1)NC(=O)N(CC(=O)NCCc1c[nH]c3ccccc13)C2=O (stereo not drawn)
 : 2%	3%	-11%
NC(=O)c1ccc[n+]([C@H]2O[C@@H](COP(=O)([O-])OP(=O)(O)OC[C@H]3O[C@@H](n4cnc5c(N)ncnc54)[C@H](O)[C@@H]3O)[C@H](O)[C@@H]2O)c1
 : 5µM*	-4%	-14%
CCS(=O)(=O)c1nc(S(=O)(=O)c2ccc(Cl)cc2)c(NCCOC)s1
 : -13%	13%	9%
Cc1ccccc1N1C(=O)CC(c2c[nH]c3ccccc23)C1=O (stereo not drawn)
 : -13%	1%	-24%
CC(C)CSc1nc2ccccc2[nH]1
 : -9%	-2%	47%[activator]
Nc1nc(COC(=O)C2CC(=O)N(CCc3ccccc3)C2)nc(Nc2ccccc2)n1 (stereo not drawn)
 : -5%	5%	9%
CC1CCN(C(=O)c2[nH]cnc2C(=O)Nc2ccccc2)CC1
 : 0%	-3%	35%[activator]
CN(C)c1ccc(-c2nnc(-c3cccs3)o2)cc1
 : -5%	-4%	-1%
Cc1nnc(SCC(=O)N2CCN(C(=O)c3ccco3)CC2)n1C
 : 4%	0%	-9%
COCCN(C(=O)CCCc1nc2ccccc2s1)c1c(N)n(CC(C)C)c(=O)[nH]c1=O
 : -5%	0%	-7%
COc1ccc(CCNC(=O)COC(=O)c2cc(Cl)nc(Cl)c2)cc1
 : 4%	-5%	-14%
O=C(O)c1cccc(Oc2ncnc3sc4c(c23)CCCC4)c1
 : -5%	-6%	3%
CCN1CCCc2cc(CN(CCN3CCOCC3)C(=S)Nc3ccc(OC)c(OC)c3)ccc21
 : 9%	-1%	3%
CCN(C(=O)COC(=O)c1cn(C)c2ccccc12)c1ccc(F)cc1
 : -5%	1%	-7%
NC(=O)N(N)c1nc(N2CCCC2)nc(N2CCCC2)n1
 : 1%	5%	-15%
O=C(NN1C(=O)c2ccccc2NC1c1ccco1)c1ccc([N+](=O)[O-])cc1 (stereo not drawn)
 : 11%	1%	2%
CCC(C)[C@@H](CN)NCC1(c2ccccc2)CC1 (stereo partly drawn)
 : -2%	1%	1%
CCCn1c(SCC(=O)Nc2ccc(F)c(Cl)c2)nc(O)cc1=O
 : 15%	5%	-2%
COc1cc2cc(CCCOC(=O)CCC(=O)O)oc(=O)c2cc1OC
 : -19%	-11%	-4%
COCC(=O)Nc1ccc(N2CCOCC2)c(S(=O)(=O)Nc2ccc(OC)cc2)c1
 : 3%	-2%	72%[activator]
CCCN(CC(=O)Nc1ccccc1C)C(=O)Cc1n[nH]c(=O)c2ccccc12
 : -9%	-7%	-18%
O=C1CC/C=C\C[C@@H](CC(=O)N(CCO)Cc2ccccc2)C(=O)N2CCC[C@H]2CO1
 : -2%	4%	-13%
CCCCCC(=O)Nc1cccc2ccccc12
 : -19%	-2%	10%
CC(C)C[C@H](NC(=O)c1nc[nH]c1C(=O)NC1CCNCC1)C(=O)OC(C)(C)C
 : -13%	5%	-14%
CCN(C(=O)CSc1nccc(=O)[nH]1)c1cccc2ccccc12
 : 25%	-2%	-14%

The listing continues.
The line under a structure holds: RE007 growth inh	SARS PLP yeast	2A StopGo
CC(Sc1nnc(Nc2ccccc2F)s1)C(=O)NC1CC1 (stereo not drawn)
 : -8%	10%	28%
CN1CCC[C@H]1CCNC(=O)c1c(-c2ccsc2)sc2ccccc12
 : 4%	6%	3%
COc1ccc2c3c1OC1C(=O)CC[C@@]4(O)[C@@H](C2)N(CC2CC2)CC[C@]314 (stereo partly drawn)
 : -9%	-6%	0%
CC1=CS(=O)(=O)CC1Sc1nc(C)n[nH]1 (stereo not drawn)
 : -8%	3%	-4%
OC[C@H]1O[C@H](OCc2ccccc2)[C@H](O[C@@H]2OC[C@@H](O)[C@H](O)[C@H]2O)[C@@H](O)[C@@H]1O
 : 0%	3%	-17%
Cc1ccc(OCCn2cccn2)c(C)c1
 : 1%	4%	1%
CCCCC[C@@H]1C=C(C(=O)O)[C@H](c2ccc(OC)c(OC)c2)N1S(=O)(=O)c1ccc(C)cc1
 : 0%	-1%	-8%
Cc1cc(C)c(S(=O)(=O)N2CCC(C(=O)OCc3c(C)noc3C)CC2)c(C)c1
 : -6%	-12%	u
CCN(c1ccccc1)S(=O)(=O)c1cccc(C(=O)NCC2(N(C)C)CCCCC2)c1
 : -16%	-2%	-4%
Cc1cc(NC(=O)COc2ccc3ccccc3c2Br)no1
 : -5%	1%	33%[activator]
CCN1C(=O)C(=C2C=C(C)OC(C)=C2)C(=O)N(CC)C1=S
 : 4%	0%	-17%
Cc1ccc(S(=O)(=O)N2CCN(C(=O)Cn3c(=O)oc4ccccc43)CC2)c(C)c1
 : 3%	2%[6.58 µM]	-18%
COC(=O)C1=C(c2c(C)noc2C)C[C@@H]2CC[C@H]1N2C(=O)NC1CCCCC1
 : -8%	-2%	3%
COc1ccc(-n2c(C)cc(C(=O)CN3CCC(C)CC3)c2C)cc1
 : 21%	3%	28%
O=C(COC(=O)C1CC(=O)N(Cc2ccccc2)C1)Nc1ccccc1F (stereo not drawn)
 : -8%	-1%	-4%
Cc1ccc(OCC(=O)NN=C2C3CC4CC(C3)CC2C4)cc1
 : 5%	-1%	-4%
CNC(=O)[C@@H]1CCC(=O)N1
 : -2%	-4%	-3%
Cc1cccc(CN2CCN(C(=O)CN(C)C(C)C(=O)Nc3ccc(C(N)=O)cc3)CC2)c1 (stereo not drawn)
 : -13%	9%	-2%
O=C(CCc1nc(-c2ccc(Cl)cc2)no1)NCc1ccccc1CN1CCOCC1
 : -2%	1%	u
COc1ccccc1C(CNC(=O)C1COc2ccccc2O1)N1CCCC1 (stereo not drawn)
 : 11%	1%	-9%
CCOC(=O)N1CCC(N2C(=O)c3ccccc3C2Nc2ccc(S(=O)(=O)N3CCOCC3)cc2)CC1 (stereo not drawn)
 : 14%	-5%	0%
O=C(CCc1n[nH]c(=O)[nH]c1=O)N/N=C/c1ccc(Br)o1
 : 8%	0%	-3%

Screening data as filed in PubChem BioAssay.

Not all compounds are listed, so the mix of outcomes need not match the whole.
